# T cruzi repl: inhibitors of intracellular T. cruzi growth, primary screen, luminescence, NIH3T3 host cells; T. cruzi beta-gal in NIH3T3, 90 h; inhibition, % (no concentration beside the values); 300,000 tested, 1.4% active; AID 1885, 2009;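 active means mean inhibition across valid replicates above about 55%, limit read from the data; inconclusive means mean below that limit but half or more replicates reach it; inactive means mean below it, under half of replicates reach it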;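 further: signal also drops with host cell toxicity which is not excluded here; 0% = plate median of DMSO wells and 100% = zero luminescence signal; higher percent means less beta-gal luminescence so fewer parasites; stock transfer was 50 nL into about 50 µL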
# ALR inh: inhibitors of human ALR sulfhydryl oxidase, primary screen, biochemical, H2O2 detection, HRP-luminol luminescence, single point | purified ALR, DTT oxidation | FAD-linked sulfhydryl oxidase ALR (Homo sapiens), P55789 | 290,000 tested, 3.8% active | inhibition, % (no concentration beside the values);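 active means mean and each replicate at 75% or more; inconclusive means only one of the two met; inactive means neither met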;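 further: stock transfer was 7.5 nL into about 7.5 µL; 0% = neutral wells and 100% = wells with inactivated enzyme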
# Target sequence (P55789 whole entry, looked up): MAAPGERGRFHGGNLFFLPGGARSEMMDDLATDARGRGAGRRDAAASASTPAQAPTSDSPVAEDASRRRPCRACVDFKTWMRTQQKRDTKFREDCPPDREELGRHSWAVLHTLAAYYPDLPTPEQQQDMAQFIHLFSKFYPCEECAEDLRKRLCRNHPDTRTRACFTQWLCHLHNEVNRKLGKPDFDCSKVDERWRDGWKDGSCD
# LANA-H2A inh: blockers of LANA interaction with H2A/H2B – biochemical, FP readout, HTS, primary screen. AID 2629, 2010. 320,000 tested, 0.6% active. Protein LANA1 (Human herpesvirus 8 type P (isolate GK18)), Q9QR71. cell-free LANA-H2A/H2B peptide, fluorescence polarization. inhibition, % (concentration not given with the values); in the data active means inhibition mostly above about 10%, no sharp cut-off; inactive means mostly below about 6.7%;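 further: stock transfer was 7.5 nL into about 10 µL; 0% = median of vehicle wells and 100% = median of positive control wells; one replicate is shown; the record names a cut of 25% in any replicate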
# Beta2AR agonist: beta2AR agonists driving receptor internalization, primary screen, cell-based, FAP fluorogen, flow cytometry | Beta-2 adrenergic receptor (Homo sapiens), P07550 | Am2.2-beta2AR cells; reference of the scale not given here | response, % (no concentration beside the values) | 340,000 tested, 0.43% active;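 active means response above a set limit, near 3 SD of response in nonfluorescent compounds, cut at about 42% in these data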;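 further: stock transfer was 100 nL into about 11 µL; a reference agonist was the positive control; negative values mostly stem from fluorescent compounds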
# Target sequence (P07550 whole entry, looked up): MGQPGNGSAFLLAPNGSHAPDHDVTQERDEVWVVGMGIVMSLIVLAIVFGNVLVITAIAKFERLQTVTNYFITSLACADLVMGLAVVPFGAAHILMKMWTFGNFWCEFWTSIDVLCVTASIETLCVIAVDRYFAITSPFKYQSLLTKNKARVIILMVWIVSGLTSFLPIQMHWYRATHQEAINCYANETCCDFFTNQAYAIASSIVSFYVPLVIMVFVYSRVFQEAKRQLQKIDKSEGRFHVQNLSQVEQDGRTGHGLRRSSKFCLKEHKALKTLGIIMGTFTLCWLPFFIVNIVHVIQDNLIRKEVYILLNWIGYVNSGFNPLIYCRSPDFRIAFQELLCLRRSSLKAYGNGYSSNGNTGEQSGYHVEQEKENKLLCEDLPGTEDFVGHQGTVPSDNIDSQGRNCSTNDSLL
# Beta apoptosis: inhibitors of cytokine-induced beta cell apoptosis, primary screen, luminescence; INS-1E cytokine-induced death, ATP luminescence, 48 h; percent of positive-control rescue, neutral wells zero; protection from apoptosis, % (no concentration beside the values); 300,000 tested, 0.8% active;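 active means all replicates at 75% or more, or half of them and the mean; inconclusive means half reach 75% but not the mean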;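 further: 0% = cytokine-treated negative control wells and 100% = positive control rescue; higher means more ATP so stronger rescue from cytokine killing; wells of about 40 µL received 100 nL stock; the first replicate is given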
# A1 inh: caspase 3/7 activation in MEF A1-2A-BIM cells, primary screen, A1 inhibitor project, cell-based, luminescence, HTS; Caspase-Glo 3/7 luminescence, 3 h; percent of clofoctol response, vehicle zero; caspase activation, % (no concentration beside the values); 330,000 tested, 0.066% active; AID 2462, 2010;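 active means over half of replicate activation scores above 10%, or exactly half above 10 with the replicate mean above 10; inconclusive means replicate mean below 10 yet half the replicates above 10; inactive means over half of replicates below 10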;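 further: wells of about 30 µL received 50 nL stock; many hits fall short of the cut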
# Ecoli rRNA inh: reduced GFP signal of wild-type E. coli, primary screen, bacterial rRNA inhibitor project, GFP/RFP fluorescence, OD600, single point; AID 720706, 2013; E. coli WT GFP vs humanized-ribosome RFP mutants, 24 h; active compounds read low; DMSO median 0, no signal -100; GFP signal change (wild-type ribosome), % (test concentration not listed); 350,000 tested, 1.6% active;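 active means significant combined selectivity score with lowered wild-type GFP, culture density cut under 30%, mutant RFP and density less affected; inactive means any of these conditions unmet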; further: one replicate is shown; some compounds called inactive have numbers as strong as hits
# Calb FLC: C. albicans growth inhibition with fluconazole, primary screen, CaCi-2 strain, Alamar Blue fluorescence | AID 1979, 2009 | 300,000 tested, 0.57% active | C. albicans CaCi-2 (fluconazole-resistant clinical isolate) + fluconazole, 48 h | growth inhibition, % (no concentration beside the values);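 active means most replicates above 75%; inconclusive means exactly half above 75%; inactive means most below 75%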;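 further: all wells also contain fluconazole at 8 µg/ml as a sub-toxic cotreatment; 0% = median of DMSO wells and 100% = median of geldanamycin control wells; wells of about 8 µL received 7.5 nL stock; the first replicate is given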
# Ecoli rRNA inh OD600: further read-out of Ecoli rRNA inh, marked with its call; OD600 change, %; measured here: OD600 growth;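 optical density of the mix in the first replicate; 0 = DMSO median and -100 = no signal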
# Ecoli rRNA inh RFP: further read-out of Ecoli rRNA inh, marked with its call; RFP signal change, %; measured here: RFP humanized mutant strains;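 first replicate; 0 = DMSO median and -100 = no signal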
# Active calls of the source: *; u = inconclusive; x = no result given. These rows are one share of the data, so the mix of outcomes need not match the whole.
SMILES,T cruzi repl,ALR inh,LANA-H2A inh,Beta2AR agonist,Beta apoptosis,A1 inh,Ecoli rRNA inh,Ecoli rRNA inh OD600,Ecoli rRNA inh RFP,Calb FLC
N#C/C(=C/c1ccc(N2CCCCCC2)o1)c1ccc(F)cc1,58.1*,17.2,0.6,-156.9,35.9,1.6,x,x,x,6.9
Clc1ccccc1-c1ccc2ncnc(NCc3cccs3)c2c1,x,-2.9,3.6,12.3,1.8,-0.1,-20.6,-35.5,22.4,x
Cc1cccc(-n2c(Cc3ccccc3)nnc2SCC(=O)N2CCOCC2)c1,3.1,3.1,-0.7,-3.7,-1.3,-0.3,-15.7,-9.1,-6.7,6.5
O=C(N/N=C/c1cccs1)c1n[nH]c2c1CCCC2,5.0,x,4.3,-34.2,31.1,-8.1,-3.2,2.6,0.6,-4.8
COc1ccc(C2=CC(c3cccc(OC)c3)n3nnnc3N2)cc1 (stereo unspecified),-12.2,-2.8,-1.0,-6.7,-0.5,1.0,7.3,2.9,2.5,5.0
COc1ccc(NC(=O)CCCNC(=O)Cn2cnc3sc(C)c(C)c3c2=O)cc1Cl,-7.7,-6.4,-2.3,-5.1,x,-0.4,4.2,5.3,0.8,-1.9
Cc1ccc(NC(=O)C2CC(=O)N/C(=N/N=C/c3ccco3)S2)cc1 (stereo unspecified),5.7,-2.6,2.2,4.4,4.7,0.0,x,x,x,5.2
Cn1c(SCC(=O)C(C)(C)C)nnc1-c1ccccn1,-6.0,-8.3,1.4,2.8,-8.1,0.6,x,x,x,-5.2
CCC[C@H](CN[C@@H](CNC)[C@H](C)CC)NCCc1cc(C(F)(F)F)cc(C(F)(F)F)c1,32.2,x,1.6,27.7,17.4,0.6,-58.4,-79.5,-36.2,-36.5
COc1ccccc1C(=O)Nc1ccnn1C1CCN(Cc2ccccc2OCCO)CC1,-15.2,2.3,-2.9,-5.0,x,0.1,4.0,6.1,-0.2,-6.3
CN(C)/C=C/C1=C([N+](=O)[O-])C(c2cccc([N+](=O)[O-])c2)NC(=O)N1 (stereo unspecified),0.1,6.3,3.8,1.1,-5.7,-0.5,7.5,8.1,-4.1,5.0
COc1ccc2o/c(=N\O)c(C(=O)Nc3ccccc3OC)cc2c1,-12.7,0.0,-14.3,53.4*,7.5,-0.7,13.2,17.8,2.6,-9.4
O=C(Nc1ccc(S(=O)(=O)Nc2nccs2)cc1)C1CC(=O)N(c2ccc(Cl)cc2)C1 (stereo unspecified),-4.7,-7.1,1.0,6.9,-2.7,-0.7,-0.3,-0.3,-3.5,2.0
Cc1cc(O)c(-c2ccno2)cc1Cl,-6.3,0.0,-3.5,-10.4,1.6,-0.3,x,x,x,-0.7
O=C(O)C(c1ccccc1)N1C(=O)/C(=C\c2ccc(-c3ccc(Br)cc3)o2)SC1=S (stereo unspecified),6.3,x,x,-108.3,x,x,10.0,1.5,5.6,46.9
O=C(COC(=O)c1cc([N+](=O)[O-])ccc1N1CCOCC1)c1ccccc1Cl,-10.3,-2.0,3.0,-7.0,6.8,-1.1,0.4,-5.3,6.9,-5.2
COCCN1C=C(C(=O)OC)C(c2ccccc2Cl)C(C(=O)OC)=C1,14.1,11.6,-0.5,-0.3,-1.3,0.3,15.8,10.2,0.0,-1.2
CN(C)CCCNC(=O)c1cc(C(=O)c2ccccc2F)c[nH]1,27.1,-2.7,3.6,-6.8,-3.1,-0.1,12.3,10.9,-1.1,-2.1
O=C(COc1ccccc1)Nc1ccc(Cl)cn1,-3.0,-4.1,1.8,0.9,0.8,-1.1,0.7,14.6,-1.1,-3.9
Cc1cc(C)c2ccc(=O)n(CC(=O)N/N=C/c3ccccc3Cl)c2n1,29.5,-12.6,-1.5,-3.8,-8.9,0.0,x,x,x,3.3
CCOC(=O)n1c(=O)n(Cc2ccc(Cl)cc2Cl)c2ccccc21,17.2,-1.6,5.8,-11.5,-5.3,1.5,x,x,x,26.1
Cc1c(N=C2NN=C(c3ccc(Cl)cc3)CS2)c(=O)n(-c2ccccc2)n1C,-0.1,97.4*,-2.1,-9.1,-0.5,1.1,-1.7,-2.1,-2.2,25.6
CC(C)CN(CC(C)C)c1nnc(NC(=O)Cn2c(=O)oc3ccccc32)s1,6.0,16.7,-2.2,-6.2,-3.5,-0.1,13.7,9.2,2.3,14.2
O=C(CSc1ccc2nnc(-c3ccccn3)n2n1)NCc1ccc2c(c1)OCO2,-12.4,-17.2,-1.6,-1.9,x,0.5,5.8,10.7,2.1,1.3
O=C(NCc1cccc(Cl)c1)C1CCC(=O)N(CCCN2CCCC2=O)C1 (stereo unspecified),4.9,-3.4,-3.1,11.0,-8.8,1.1,0.7,2.0,-0.4,-1.6
O=C1CS(=O)(=O)c2ccccc2N1,3.3,x,4.0,-8.3,1.3,0.9,7.4,13.8,-2.0,1.7
O=C(/C=C/c1cn(-c2ccccc2)nc1-c1cccc(Cl)c1)N1CCN(c2ccccn2)CC1,73.1*,-5.3,-1.5,18.5,2.3,1.3,6.2,9.7,1.4,15.5
CC(=O)c1c(C)[nH]c(C(=O)OCC(=O)Nc2sc3c(c2C#N)CCC(C)C3)c1C (stereo unspecified),3.9,-3.2,1.0,-2.4,10.6,-0.2,-24.3,-29.2,-3.8,6.1
Cc1ccc(C)c(-c2ccc(=O)n(Cc3c(F)cccc3Cl)n2)c1,11.2,-3.6,-3.1,9.2,-0.5,0.1,-41.9,-74.9,-15.1,10.4
O=C(NCCCNC(=O)c1ccco1)c1ccc(Cl)c(Cl)c1,-1.7,-6.4,2.6,-12.9,x,-0.3,-4.5,-19.0,0.8,-2.6
Cc1cc(N2CCOCC2)ccc1/C=C1\NC(=O)N(Cc2ccccc2F)C1=O,4.1,6.7,-1.6,0.7,8.2,-0.6,1.5,4.4,3.1,1.5
CCN(C(=O)N1CCOCC1)c1ccccc1,-11.7,-2.8,5.4,7.3,-4.3,0.2,12.6,3.8,1.6,-2.8
O=S(=O)(Cc1cc(Cl)nc(-c2ccccc2)n1)c1ccccc1,6.1,3.8,-0.6,6.0,-1.6,1.1,x,x,x,1.0
CN(C)C(=O)C1Cc2ccccc2CN1S(=O)(=O)c1cccs1 (stereo unspecified),5.0,-3.7,-2.0,-0.2,3.4,0.9,12.2,4.1,0.4,4.7
O=C(CCl)Nc1cccc(Oc2ccccc2)c1,56.2*,x,1.8,1.0,-7.8,0.1,-25.6*,-5.2*,1.0*,-16.2
NC1=NC(=O)/C(=C/c2cccc(F)c2)S1,-10.7,-0.8,-6.2,3.9,x,0.0,8.0,12.5,-0.9,1.4
COc1ccc(NC(=O)COC(=O)CO/N=C(\C)c2ccc3c(c2)OCO3)cc1S(N)(=O)=O,x,-4.0,2.3,-7.5,-2.8,-1.4,5.6,11.8,-1.6,x
O=C(Nc1nnc(SCc2ccc(F)cc2)s1)C1CC(=O)N(c2ccc3c(c2)OCCO3)C1 (stereo unspecified),-7.4,4.2,1.4,-2.6,-9.1,0.3,x,x,x,-11.5
Cc1ccc(N2C(=O)CC(Sc3ncn[nH]3)C2=O)cc1C (stereo unspecified),14.1,7.9,-2.4,2.9,-9.2,0.8,x,x,x,-9.5
O=C(Nc1nnc(-c2cccs2)o1)C1CC1,-7.8,0.8,-2.1,-6.2,1.5,0.2,1.5,7.8,1.8,-0.6
Cc1onc(-c2ccc(Cl)cc2Cl)c1-c1csc(N/N=C/c2ccccc2Cl)n1,62.0*,-5.1,-1.2,-3.5,x,-1.0,4.5,12.3,0.6,1.1
CCOC(=O)C1CCN(c2cc(=O)n(Cc3ccc(F)cc3)c(=O)[nH]2)CC1,-8.6,4.8,-1.6,0.9,-1.1,0.0,8.3,12.3,-0.2,-0.1
COc1ccc(COC(=O)C2=C(C)NC(=O)NC2c2ccccc2F)cc1 (stereo unspecified),-5.6,-7.1,-4.2,-7.9,x,-0.4,-0.6,5.9,1.7,-6.5
COc1ccc(N2CCN(C(=O)COC(=O)c3oc4ccccc4c3C)CC2)cc1,x,11.2,-2.5,1.4,2.4,-0.7,-15.2,-29.3,0.0,x
COc1ccc(C(=O)NNC(=O)c2snnc2C)cc1,0.2,3.3,-0.7,-1.0,-7.3,-0.5,1.9,5.9,1.4,0.9
CC(C)N1CCN(c2ccc(S(=O)(=O)N3CCOCC3)cn2)CC1,x,-4.5,0.8,5.8,-2.2,-0.6,29.7,20.1,4.3,-8.4
Cc1ccc(CNC(=O)CSc2nc(C)cs2)cc1,2.1,-6.6,8.0,-6.5,-6.3,0.1,10.7,10.0,0.2,-4.7
Cc1scc(C(=O)N/N=C/c2ccc(OC(C)C)cc2)c1C,1.6,-2.5,-1.3,22.8,1.9,u,x,x,x,-5.4
O=C(CCS(=O)(=O)c1cccc2nsnc12)NC1CCCCCC1,-2.9,-8.3,1.6,3.9,-0.3,0.7,x,x,x,-12.0
Cc1cccc(NS(=O)(=O)c2nnc(NC(=O)CC(C)C)s2)c1,-16.6,x,5.8,-10.9,-0.8,0.1,4.2,0.8,-3.4,-7.4
Cc1c(Cl)cccc1NC(=O)Cc1ccc([N+](=O)[O-])cc1,-12.7,-12.9,0.8,-1.1,-12.5,0.1,-0.9,-3.2,1.1,x
CNC(=O)c1cc2cc(Cc3ccccc3Cl)ccc2oc1=O,5.6,-1.4,10.0,2.5,-2.2,0.4,19.0,12.6,0.6,37.4

# Profiles from above. Order of values: T cruzi repl	ALR inh	LANA-H2A inh	Beta2AR agonist	Beta apoptosis	A1 inh	Ecoli rRNA inh	Ecoli rRNA inh OD600	Ecoli rRNA inh RFP	Calb FLC
# O=C(CCS(=O)(=O)c1cccc2nsnc12)NC1CCCCCC1 is listed with -2.9	-8.3	1.6	3.9	-0.3	0.7	x	x	x	-12.0
# CNC(=O)c1cc2cc(Cc3ccccc3Cl)ccc2oc1=O is listed with 5.6	-1.4	10.0	2.5	-2.2	0.4	19.0	12.6	0.6	37.4
# Cc1c(Cl)cccc1NC(=O)Cc1ccc([N+](=O)[O-])cc1 is listed with -12.7	-12.9	0.8	-1.1	-12.5	0.1	-0.9	-3.2	1.1	x

# Copied from the list.
# Ecoli rRNA inh OD600 with Clc1ccccc1-c1ccc2ncnc(NCc3cccs3)c2c1 : -35.5
# LANA-H2A inh with Cc1scc(C(=O)N/N=C/c2ccc(OC(C)C)cc2)c1C : -1.3

# Screens: PubChem, several laboratories
